# eIF4H FP inh: human eIF4H binding inhibitors, primary screen, translation initiation inhibitor project, biochemical, uHTS, fluorescence polarization; Eukaryotic translation initiation factor 4H (Homo sapiens), Q15056; eIF4H fluorescence polarization binding assay; inhibition, % at 35 µM; 290,000 compounds, 0.94% hits;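 active = 50% or more with normal probe brightness, or confirmed in later tests; about a fifth of its hits are not listed in these tables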;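 note: calls also rest on retests at 20 µM and on dose response follow-up; 0% = protein and probe with vehicle and 100% = probe without protein; strong numbers were not always called active; many hits fall short of the cut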
# CSC inhib: cancer stem cell viability inhibitors, primary screen, luminescence. 300,000 compounds, 1.1% hits. cancer stem cell-like cells viability. inhibition, % at 7.5 µM;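 active = mean at 75% or more and at least half the replicates too; tested in HMLE shEcad cells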;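 note: 0% = median of negative and 100% = median of positive control wells; the first replicate is given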
# PABP FP inh: PABP poly(A) RNA binding inhibitors, primary screen, biochemical, fluorescence polarization, uHTS. AID 2014, 2009. Polyadenylate-binding protein 1 (Homo sapiens), P11940. 290,000 compounds, 1% hits. inhibition, % at 35 µM;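 active = 50% or more with normal probe brightness, or confirmed in later tests; about a fifth of its hits are not listed in these tables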;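 note: calls also rest on retests at 20 µM and on dose response follow-up; controls were probe without protein and protein plus probe with vehicle; some compounds called inactive have numbers as strong as hits; many hits fall short of the cut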
# Yeast UUG start: modulators of yeast start codon fidelity, primary screen, whole organism, S. cerevisiae, single point, plate reader; 350,000 compounds, 0.13% hits; activity score, % at 18.7 µM; S. cerevisiae UUG-firefly luciferase reporter, luminescence/redox ratio; AID 602363, 2012;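 active = replicate mean at a twofold rise or more, about +100% in these data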;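 note: firefly luciferase made from a UUG start codon reports start codon fidelity; reporter light over untreated wells divided by growth signal over untreated wells; some hits fall short of that in this replicate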
# Env fusion inh: inhibitors of HIV-1 Env-driven cell-cell fusion, primary screen, HeLa-JRFL effector, CEM21 target cells, luciferase. inhibition, % at 12.3 µM. 360,000 compounds, 1.1% hits. AID 651610, 2012;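 active = mean replicate inhibition score of at least 50 and every replicate individually at or above 50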;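 note: 0% = plate neutral controls and 100% = maraviroc near 300 nM; one replicate is shown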
# Rce1 inh: yeast Rce1p protease inhibitors, primary screen, biochemical, fluorescence, cell-free homogeneous; 290,000 compounds, 0.27% hits; yeast membranes, quenched prenylated peptide cleavage fluorescence; calls only; AID 2563, 2010;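 active = fall in fluorescence gain of 50% or more versus controls, with final raw signal at or below 3038400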;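 note: plate controls were neutral control wells for no effect and wells lacking membranes for full effect; tested at 10 µM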
# Target sequence (Q03530 whole entry, looked up): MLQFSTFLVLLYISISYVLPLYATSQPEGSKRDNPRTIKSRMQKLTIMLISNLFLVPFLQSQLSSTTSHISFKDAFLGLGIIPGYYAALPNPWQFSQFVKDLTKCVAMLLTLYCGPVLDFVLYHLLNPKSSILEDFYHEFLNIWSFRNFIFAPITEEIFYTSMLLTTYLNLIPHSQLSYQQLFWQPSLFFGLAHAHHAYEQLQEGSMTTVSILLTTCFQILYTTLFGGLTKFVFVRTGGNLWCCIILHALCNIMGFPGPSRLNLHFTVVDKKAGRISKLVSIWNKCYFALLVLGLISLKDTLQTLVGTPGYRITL
# MT1-MMP act inh: blockers of MT1-MMP proenzyme processing, primary screen, HT1080 RFP-PRO-GFP cells, GFP/RFP fluorescence | Matrix metalloproteinase-14 (Homo sapiens), P50281 | GFP/RFP ratio fluorescence, overnight; percent of plate control window, DMSO zero | GFP/RFP ratio change, % at 20 µM | 360,000 compounds, 0.061% hits | AID 651647, 2012;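 active = GFP/RFP ratio change of at least 30% with cell ATP level not reduced by more than half and red fluorescence within 50% of control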; note: strong numbers were not always called active
#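 Test system: HT1080 RFP-PRO-GFP cells; Benchmarks: DMSO and RFP-L50D-GFP cell wells; Timing: cells overnight before dosing, compound overnight, 37 °C, 5% CO2; Compound: one 20 µM compound dose with 1% DMSO; Read-out: GFP/RFP fluorescence ratio.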
# eIF4H FP inh retest: recorded beside eIF4H FP inh, whose call it bears; inhibition, %; compound at 20 µM; confirmation average;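 mean of two retest wells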
# PABP FP inh retest: recorded beside PABP FP inh, whose call it bears; inhibition, %; compound at 20 µM; confirmation repeats;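 mean of two retest wells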
# MT1-MMP act inh RFP: second read-out of MT1-MMP act inh, no call of its own (marks repeat the call); RFP signal change, %; measured here: RFP expression control read;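 0 = vehicle wells; hits needed this value within 50% of zero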
# The depositor's hits bear a star; i = inactive; · = not tested or not shown; & = joins results of further samples. These rows are one share of the data (hit frequency here may not be typical).
# Preview (five entries):
SMILES,eIF4H FP inh,CSC inhib,PABP FP inh,Yeast UUG start,Env fusion inh,Rce1 inh,MT1-MMP act inh,MT1-MMP act inh RFP,others
O=C(CN1CCC(C(=O)c2cccc(Cl)c2)CC1)Nc1cccc(C(=O)O)c1,0,0,-1,·,1,i,0,3,
COc1ccc(S(=O)(=O)N2CCOC2CNC(=O)C(=O)NCc2ccccc2OC)cc1 (stereo not drawn),-3,8,13,-1,2,i,-3,-3,
Cc1cccc(CN2CCN(Cc3cnn(-c4ccccc4F)c3)CC2CCO)n1 (stereo not drawn),-11,-4,-1,·,-31,i,-2,3,
CN(Cc1ccccc1)C(=O)C1CCN(S(=O)(=O)c2cc([N+](=O)[O-])ccc2Cl)CC1,8,-6,-3,·,-4,i,-10,-15,
O=C(Nc1ccc2c(c1)OCO2)c1csc([C@@H]2O[C@H](CO)[C@H](O)[C@H](O)[C@H]2O)n1,·,·,·,-14,2,·,4,3,

# The list itself, repeating the preview:
SMILES,eIF4H FP inh,CSC inhib,PABP FP inh,Yeast UUG start,Env fusion inh,Rce1 inh,MT1-MMP act inh,MT1-MMP act inh RFP,others
O=C(CN1CCC(C(=O)c2cccc(Cl)c2)CC1)Nc1cccc(C(=O)O)c1,0,0,-1,·,1,i,0,3,
COc1ccc(S(=O)(=O)N2CCOC2CNC(=O)C(=O)NCc2ccccc2OC)cc1 (stereo not drawn),-3,8,13,-1,2,i,-3,-3,
Cc1cccc(CN2CCN(Cc3cnn(-c4ccccc4F)c3)CC2CCO)n1 (stereo not drawn),-11,-4,-1,·,-31,i,-2,3,
CN(Cc1ccccc1)C(=O)C1CCN(S(=O)(=O)c2cc([N+](=O)[O-])ccc2Cl)CC1,8,-6,-3,·,-4,i,-10,-15,
O=C(Nc1ccc2c(c1)OCO2)c1csc([C@@H]2O[C@H](CO)[C@H](O)[C@H](O)[C@H]2O)n1,·,·,·,-14,2,·,4,3,
Cc1ccc(CC(=O)N2CCN(c3ccccn3)CC2)cc1,-10,-17,-5,-29,-3,i,0,3,
COc1cccc(C(=O)NNC(=O)c2ccccc2Br)c1,0,1,0,-13,-2,i,-1,0,
CCOC(=O)Cn1nc(C)c(NC(=O)COc2cccc(Cl)c2)c1C,-2,0,36,·,-3,i,1,-3,
CN(C(=O)c1cccc(NC(=O)Cc2ccc(NC(=O)C3CCN(C(=O)C4CCCCC4)CC3)cc2)c1)C1CCC1,·,·,·,0,11,·,2,3,
Cc1cc(NC(=O)COc2ccccc2)ccc1Cl,2,2,-4,87,-22,i,0,-1,
O=C(c1cccs1)N(Cc1ccc(Cl)cc1)C1CCS(=O)(=O)C1 (stereo not drawn),-7,-5,2,8,5,i,-2,1,
O=S(=O)(NCc1ccccn1)c1ccc2ccccc2c1,0,·,1,-26,3,i,3,1,
O=C(NCCc1ccccc1)C(=O)NCC1CCNCC1,2,4,-4,·,·,i,·,·,
Cc1ccc(C)c(S(=O)(=O)N2CCN(C(=O)CCc3nc4ccccc4c(=O)[nH]3)CC2)c1,·,-12,·,-10,-9,i,-1,-2,
C[C@H]1CN([C@@H](C)CO)C(=O)c2cc(Br)cnc2O[C@H]1CN(C)C(=O)C1CCC1,·,·,·,-13&-7,-12,·,0,3,
CCNc1nc(NC(C)C)nc(N(C#N)CCOc2ccccc2)n1,4,5,0,2,-149,i,-6,-12,
Cc1ccc(C2NC(c3ccc(C)cc3)C(C)C(=O)C2C)cc1 (stereo not drawn),-1,-8,-3,·,-2,i,-4,-2,
COC(=O)c1[nH]c(C)c(/C(O)=C2\C(=O)C(=O)N(CCCN3CCOCC3)C2c2ccccn2)c1C (stereo not drawn),10,·,3,-9,·,i,-1,0,
COc1ccc(CCNC(=O)CSc2nnnn2-c2ccccc2OC)cc1OC,-1,0,-2,-6,-20,i,4,2,
COCCSc1nc2c(c(=O)[nH]c(=O)n2C)n1CCCc1ccccc1,-9,-20,-2,-10,6,i,4,2,

# Part of the list above in order of SMILES length, rising.
SMILES,eIF4H FP inh,CSC inhib,PABP FP inh,Yeast UUG start,Env fusion inh,Rce1 inh,MT1-MMP act inh,MT1-MMP act inh RFP,others
COc1cccc(C(=O)NNC(=O)c2ccccc2Br)c1,0,1,0,-13,-2,i,-1,0,
Cc1ccc(C2NC(c3ccc(C)cc3)C(C)C(=O)C2C)cc1 (stereo not drawn),-1,-8,-3,·,-2,i,-4,-2,
COc1ccc(CCNC(=O)CSc2nnnn2-c2ccccc2OC)cc1OC,-1,0,-2,-6,-20,i,4,2,
Cc1ccc(C)c(S(=O)(=O)N2CCN(C(=O)CCc3nc4ccccc4c(=O)[nH]3)CC2)c1,·,-12,·,-10,-9,i,-1,-2,

# Next structures follow:
SMILES,eIF4H FP inh,CSC inhib,PABP FP inh,Yeast UUG start,Env fusion inh,Rce1 inh,MT1-MMP act inh,MT1-MMP act inh RFP,others
O=C(Cc1ccccc1)NCC(=O)N1CCCCCC1,-20,4,4,-10,-21,i,10,-1,
COc1cccc(CN2CCC(n3nccc3NC(=O)CCOc3ccccc3)CC2)c1,0,-7,4,-10,9,i,1,1,
CC(=O)N1CCN(CCN=CC2=C(O)CC(c3ccco3)CC2=O)CC1 (stereo not drawn),-2,-19,4,-7,-7,i,0,4,
O=C1/C(=C/c2ccc(O)cc2)CCc2ccc([N+](=O)[O-])cc21,1,17,8,·,13,i,-4,-7,
COc1cccc(CC(NC(C)=O)C(=O)NC2CCN(S(=O)(=O)c3ccc(NC(C)=O)cc3)CC2)c1 (stereo not drawn),-1,-3,12,·,-3,i,-1,-2,
CCn1c(COc2ccccc2C)nnc1SCC(=O)CC(=O)Nc1ccccc1OC,7,1,9,-21,-11,i,7,1,
COc1cc([N+](=O)[O-])ccc1NC(=O)Cn1ccsc1=N,-5,-5,0,-5,2,i,0,-1,
CCCc1cc(=O)[nH]c(SCC(=O)N(CCC#N)c2ccc3c(c2)OCCO3)n1,·,·,·,-8,9,·,4,5,
COC(=O)CN(C)C1CC(=O)N(c2ccc(Cl)cc2)C1=O (stereo not drawn),5,-8,14,-9,-22,i,7,3,
C[C@@H]1CN([C@H](C)CO)C(=O)CCCn2nncc2CO[C@H]1CN(C)Cc1ccccc1C(=O)O,·,·,·,-1&-12,-5,·,4,3,
COC(=O)CS(=O)(=O)c1cc([N+](=O)[O-])ccc1NC(=O)OC,-2,-4,-6,·,9,i,2,4,
COC(=O)c1ccc(C)c(-n2c(=O)n(Cc3ccccc3)c(=O)c3[nH]cnc32)c1,-1,1,8,-23,7,i,-1,-1,
Cc1cc(=O)oc2cc(OCCC[n+]3ccccc3)ccc12,1,-9,10,-12,-4,i,5,3,
Cc1ccc(C(=O)Oc2cccc(NC(=O)c3ccco3)c2)cc1S(=O)(=O)N1CCC(C)CC1,-8,14,-6,-5,-211,i,5,2,
COc1ccc(CNC(=O)C2COc3ccccc3O2)cc1 (stereo not drawn),-5,-1,-7,-6,-105,i,-6,-6,
CN(c1ccc(C(=O)NCCSC(C)(C)C)cc1)S(C)(=O)=O,-4,-5,20,-10,·,i,-1,-1,
COc1ccc(CNC(=O)c2cc(S(=O)(=O)N3CCCC3)cn2C)cc1,-7,10,-2,-7,-7,i,0,2,
COc1ccc(CNC(=O)Nc2nc(C(N)Cc3ccc(C(F)(F)F)cc3)cs2)cc1 (stereo not drawn),·,·,·,-18,-25,·,-7,-2,
C/C(=N\NC(=S)Nc1cccc(C)c1)c1ccccc1,4,0,3,-23,-55,i,0,-4,
CCCCC(=O)N/N=C(\C)CC(=O)Nc1cc(Cl)ccc1OC,-10,·,-10,-10,-26,i,14,1,
O=C(Cc1ccc(-n2cccc2)cc1)N1CCc2ccccc21,-4,-8,4,·,·,i,-4,0,
COCCC(=O)N1CCC(Oc2ccc(C(=O)N3CCCC(CCCO)C3)cc2)CC1 (stereo not drawn),-2,-2,-2,12,-7,i,1,2,
CN(C)C(=O)c1cccc(-c2cnc3c(NC=O)cc(-c4ccc(F)cc4)cn23)c1,·,·,·,11,7,·,-5,1,
CCCCOc1ccc(C(=O)NCC(=O)OCC(=O)c2c(N)n(C)c(=O)n(C)c2=O)cc1,·,12,·,-24,-12,·,7,4,
COc1ccc(C(=O)C(/C=N/O)=N/Nc2ccc(F)cc2)cc1,6,63,4,·,24,i,1,-17,
CC1=C(C(=O)N(C(C)C)C(C)C)CC(CC(=O)NCc2cccs2)C(=O)N1Cc1ccccc1 (stereo not drawn),·,·,·,3,-2,·,2,2,
C(=C\c1ccccc1)/CN1CCN(C(c2cc3ccccc3o2)c2nnnn2C2CCCCC2)CC1 (stereo not drawn),·,·,·,27,-49,·,1,-3,
CCC(C)NC(=O)CSc1nnc(-c2ccncc2)n1-c1ccc(OC)cc1 (stereo not drawn),-4,7,-10,1,·,i,3,1,
CCOC(=O)c1cccc(NC(=O)CS(=O)(=O)Cc2nc(-c3cccc(OC)c3)oc2C)c1,7,-2,-2,12,11,i,-1,-3,
CCOc1ccc(CC(=O)Nc2ccc(-c3ccc4nnc(C)n4n3)cc2)cc1,-3,-5,2,3,7,i,10,3,
CC(C)(C)C(=O)Nc1ccc(C(=O)CN2C(=O)NC3(CCOc4ccccc43)C2=O)cc1 (stereo not drawn),·,-13,·,0,4,·,-3,2,
Cc1ccc(NC(=O)C2CCCN2S(=O)(=O)c2ccc3c(c2)n(C)c(=O)c(=O)n3C)cc1C (stereo not drawn),-7,-4,14,-13,-8,i,0,5,
Cc1cnc(C(=O)OCC(=O)N(C(C)C)C(C)C)cn1,-7,-13,1,-9,·,i,3,4,
COc1cccc(OCc2nc3ncc(Br)cc3[nH]2)c1,7,44,-5,-16,·,i,6,-6,
Cn1c(SCC(=O)c2cc3ccccc3o2)nnc1-c1ccccc1,-4,8,2,-21,-13,i,-4,4,
COc1ccc(CC(=O)NCC(=O)N/N=C(/C)c2ccco2)cc1,-2,-7,-2,·,9,i,0,2,
Cc1ccc(N2CC(C(=O)Nc3ccccc3N3CCCC3)CC2=O)cc1 (stereo not drawn),-4,-22,-3,-18,·,i,1,0,
CCCCCCCn1c(NC(=O)CC)nc2ccccc21,74*,5,2.0*,-35,72*,i,-5,-15,eIF4H FP inh retest=74*;PABP FP inh retest=70*
O=C(O)c1ccc(Nc2nc(-c3ccccc3)c3ccccc3n2)cc1,-2,-4,-5,·,7,·,3,-1,
Cc1ccc(S(=O)(=O)NCC(c2ccccc2)N2CCCCC2)cc1 (stereo not drawn),-2,7,-5,-5,4,i,-4,0,
COc1ccccc1-c1oc2ccccc2c1-c1ccc2cc[nH]c2c1,·,13,·,5,9,·,6,-4,
COc1ccc(-n2c(=S)[nH]c3cc(C(=O)NCc4ccco4)ccc3c2=O)cc1OC,0&-2,·,-5&2,-19,5,i,3&4,0&-1,
Cc1ccc(CNC(=O)CN(c2ccc(Cl)cc2)S(C)(=O)=O)cc1,-4,-14,7,-21,-3,i,1,-2,
CN(C)CCCN(C(=O)COc1ccccc1)c1nc2c(F)cccc2s1,2,-12,-4,-56,8,i,8,3,
O=C(CCc1ccccc1)Nc1ccc(S(=O)(=O)Nc2nccs2)cc1,2,-4,1,-4,17,i,-2,2,
CCn1cc(C(=O)Nc2ccc(C)cc2[N+](=O)[O-])c(C)n1,·,-4,·,-7,6,i,0,-2,
Cc1ccc(S(=O)(=O)Nc2ccc(O)c(S(=O)(=O)c3ccc(C)cc3)c2)cc1,-5,-2,6,2,13,i,3,5,

# Screening results: PubChem, several laboratories
